Source: PubChem (several laboratories)
Calb FLC: C. albicans growth inhibition with fluconazole, primary screen, CaCi-2 strain, Alamar Blue fluorescence | C. albicans CaCi-2 (fluconazole-resistant clinical isolate) + fluconazole, 48 h | growth inhibition, % (test concentration not listed) | 300,000 tested, 0.57% active | AID 1979, 2009;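 active means most replicates above 75%; inconclusive means exactly half above 75%; inactive means most below 75%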;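 further: all wells also contain fluconazole at 8 µg/ml as a sub-toxic cotreatment; 0% = median of DMSO wells and 100% = median of geldanamycin control wells; wells of about 8 µL received 7.5 nL stock; the first replicate is given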
RanGTP-Imp inh: inhibitors of RanGTP-importin-beta interaction, primary screen, biochemical, FRET, CFP-Ran, YFP-importin-beta, homogeneous | inhibition, % (concentration not given with the values) | 300,000 tested, 1.1% active | Ran GTPase (GTP-bound) - importin-beta complex | cell-free CFP-Ran/YFP-importin-beta FRET ratio;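 active means most replicates above 15%; inconclusive means exactly half above 15%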;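 further: 0% = DMSO wells and 100% = Ran loaded with GDP instead of GTP; wells of about 40 µL received 100 nL stock; the first replicate is given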
Vif A3G: inhibitors of Vif binding to APOBEC3G peptide, primary screen, biochemical, TR-FRET, GST-Vif 1-94, biotin-A3G peptide, dose response retest (AID 1117319); Virion infectivity factor (Human immunodeficiency virus type 1 group M subtype B (isolate …; 260,000 tested, 0.57% active; TR-FRET GST-Vif / biotin-A3G peptide binding; higher % means a stronger effect; test concentration not given here; strong numbers were not always called active; inhibition, %; hits with a dose series show IC50 in µM;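 active means above the screen mean plus three standard deviations and confirmed in dose response; inconclusive means results disagree or hit not tested in dose response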;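 further: Vif residues 1-94 fused to GST binding biotinylated APOBEC3G peptide 110-148; 0% = full assay without inhibitor and 100% = GST in place of GST-Vif; retest series ran down from 100 µM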
MLL AF4-AF9 inh: inhibitors of AF4 peptide binding to AF9, primary screen, biochemical, AlphaScreen, biotin-AF4 peptide, FLAG-AF9, single point; AID 651704, 2012; 350,000 tested, 0.47% active; inhibition, % at 10 µM;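 active means every replicate reaching a set inhibition limit, whatever the replicate mean, cut at about 25% in these data; inconclusive means mean inhibition reaches that limit but some replicates miss it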;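 further: 0% = plate neutral control median and 100% = total signal loss; the record names both 10 and 1 µM as test concentration; the first replicate is given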
Target sequence (P42568 whole entry, looked up): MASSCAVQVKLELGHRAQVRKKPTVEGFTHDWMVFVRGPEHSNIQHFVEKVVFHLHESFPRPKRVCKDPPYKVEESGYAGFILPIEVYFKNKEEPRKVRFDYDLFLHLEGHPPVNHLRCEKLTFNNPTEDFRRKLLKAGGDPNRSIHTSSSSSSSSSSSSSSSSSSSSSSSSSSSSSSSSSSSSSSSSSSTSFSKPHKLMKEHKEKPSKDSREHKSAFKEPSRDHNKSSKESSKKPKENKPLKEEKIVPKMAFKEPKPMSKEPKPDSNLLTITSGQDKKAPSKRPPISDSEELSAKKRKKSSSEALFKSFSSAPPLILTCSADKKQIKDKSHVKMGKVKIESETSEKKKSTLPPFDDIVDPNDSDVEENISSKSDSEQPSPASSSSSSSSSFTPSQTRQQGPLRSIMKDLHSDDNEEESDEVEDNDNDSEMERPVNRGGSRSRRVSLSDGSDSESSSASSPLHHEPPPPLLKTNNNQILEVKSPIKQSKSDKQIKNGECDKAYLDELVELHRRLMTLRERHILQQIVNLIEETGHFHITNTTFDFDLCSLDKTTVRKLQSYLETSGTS
Bfl-1 A1 inh: caspase 3/7 activation in MEF A1-2A-BIM cells, primary screen, A1 inhibitor project, cell-based, luminescence, HTS; Caspase-Glo 3/7 luminescence, 3 h; percent of clofoctol response, vehicle zero; caspase activation, % (no concentration beside the values); 330,000 tested, 0.066% active; AID 2462, 2010;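 active means over half of replicate activation scores above 10%, or exactly half above 10 with the replicate mean above 10; inconclusive means replicate mean below 10 yet half the replicates above 10; inactive means over half of replicates below 10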;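 further: wells of about 30 µL received 50 nL stock; many hits fall short of the cut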
Ecoli rRNA inh: reduced GFP signal of wild-type E. coli, primary screen, bacterial rRNA inhibitor project, GFP/RFP fluorescence, OD600, single point | GFP signal change (wild-type ribosome), % (concentration not given with the values) | 350,000 tested, 1.6% active | E. coli WT GFP vs humanized-ribosome RFP mutants, 24 h; stronger effect = lower value; DMSO median 0, no signal -100;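 active means significant combined selectivity score with lowered wild-type GFP, culture density cut under 30%, mutant RFP and density less affected; inactive means any of these conditions unmet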; further: one replicate is shown; some compounds called inactive have numbers as strong as hits
T cruzi repl: inhibitors of intracellular T. cruzi growth, primary screen, luminescence, NIH3T3 host cells | T. cruzi beta-gal in NIH3T3, 90 h | inhibition, % (concentration not given with the values) | 300,000 tested, 1.4% active;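 active means mean inhibition across valid replicates above about 55%, limit read from the data; inconclusive means mean below that limit but half or more replicates reach it; inactive means mean below it, under half of replicates reach it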;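 further: signal also drops with host cell toxicity which is not excluded here; 0% = plate median of DMSO wells and 100% = zero luminescence signal; higher percent means less beta-gal luminescence so fewer parasites; stock transfer was 50 nL into about 50 µL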
Beta apoptosis: inhibitors of cytokine-induced beta cell apoptosis, primary screen, luminescence; protection from apoptosis, % (concentration not given with the values); 300,000 tested, 0.8% active; INS-1E cytokine-induced death, ATP luminescence, 48 h; percent of positive-control rescue, neutral wells zero;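 active means all replicates at 75% or more, or half of them and the mean; inconclusive means half reach 75% but not the mean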;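 further: 0% = cytokine-treated negative control wells and 100% = positive control rescue; higher means more ATP so stronger rescue from cytokine killing; wells of about 40 µL received 100 nL stock; the first replicate is given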
Ecoli rRNA inh OD600: further read-out of Ecoli rRNA inh, marked with its call; OD600 change, %; measured here: OD600 growth;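 optical density of the mix in the first replicate; 0 = DMSO median and -100 = no signal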
Ecoli rRNA inh RFP: also measured in Ecoli rRNA inh; calls as there; RFP signal change, %; measured here: RFP humanized mutant strains;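 first replicate; 0 = DMSO median and -100 = no signal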
Active calls of the source: *; ? = inconclusive; · = not tested or not shown. The list is partial, so the mix of outcomes need not match the whole.

SMILES	Calb FLC	RanGTP-Imp inh	Vif A3G	MLL AF4-AF9 inh	Bfl-1 A1 inh	Ecoli rRNA inh	Ecoli rRNA inh OD600	Ecoli rRNA inh RFP	T cruzi repl	Beta apoptosis
Cc1cc(OCC(=O)N[C@@H](CSCc2ccccc2)C(=O)O)c2c(C)c(C)c(=O)oc2c1	3	0.6	·	-3.2	1.1	·	·	·	-13	0
CN1C(=S)SC(/[N+]([O-])=C\c2ccc(Cl)cc2)C1(C)C (centres undefined)	-6	-2.4	-5%	·	1.1	·	·	·	4	1
CCCCOc1cccc(C(=O)Nc2ccc(NC(=O)c3ccco3)cc2)c1	-4	1.9	-9%	-0.3	0.0	1	3	-3.9	-3	5
CC(C)(C)OC(=O)NCCCC[C@@H](C(=O)NCCCCCCCCCCC(=O)N1CCN(C(=O)OC(C)(C)C)CC1)n1cc(CCCC(=O)O)nn1	·	·	·	0.7	-0.1	4	-9	9.3	·	0
CC(=O)N1c2c(ccc3ccccc23)C(C)CC12CCCCC2 (centres undefined)	-16	3.8	-3%	·	0.1	·	·	·	11	4
COc1ccc(-c2nc(CCNS(=O)(=O)c3ccc4c(c3)OCCO4)cs2)cc1	-8	8.6	9%	-11	0.1	-2	-30	-10	2	-12
O=C(NCc1ccccc1)Nc1cccn(Cc2ccccc2)c1=O	1	-1.5	·	·	0.5	·	·	·	-17	-9
O=C(COC(=O)c1cccs1)NCc1ccc2c(c1)OCO2	-8	6.5	-1%	·	-0.5	·	·	·	-1	0
Cc1c(C(=O)NC2CC2)oc2ccccc12	·	·	-6%	-1.8	1.1	·	·	·	·	-6
O=C(NCc1ccco1)c1ccc(Cn2c(=O)c3ccccc3n(Cc3cccc(Cl)c3)c2=O)cc1	-13	-3.1	-1%	·	0.4	·	·	·	-6	1
CC(=O)Nc1ccc(S(=O)(=O)Oc2ccc(N3C(=O)C4CCCCC4C3=O)cc2)cc1 (centres undefined)	-17	-2.8	-2%	·	-0.3	-21	-20	0.6	-20	11
Cc1cccc(CC2SC(N3CCN(c4ccccc4)CC3)=NC2=O)c1 (centres undefined)	-2	-2.0	-2%	·	-0.1	·	·	·	6	0
CCOC(=O)CC1C(=O)NCCN1S(=O)(=O)c1ccc(Cl)cc1 (centres undefined)	-13	-1.0	4%	·	0.3	·	·	·	4	-3
Cc1sc(NC(=O)c2ccccc2)c(C(=O)N2CCN(C)CC2)c1C	2	?	-4%	·	0.7	·	·	·	2	8
Cc1ccc(C(=O)OCC(=O)NCCc2ccc(S(N)(=O)=O)cc2)o1	·	·	-5%	-1.6	1.6	7	9	1.4	·	-5
CSC(=O)NC12CC3CC(CC(C)(C3)C1)C2	6	-2.2	-2%	·	-1.1	·	·	·	6	1
Cc1noc(NS(=O)(=O)c2ccc(NC(=O)CSc3nnc4c(n3)[nH]c3ccccc34)cc2)c1C	3	-0.2	1%	·	-0.4	·	·	·	1	·
CC(C)C[C@H](NC(=O)C1CCN(S(=O)(=O)c2ccccc2)CC1)C(=O)NCc1ccncc1	0	1.3	·	-2.9	-1.4	4	9	0.0	20	3
c1ccc2c(c1)CCN(c1nc3ccccc3n3cnnc13)C2	-1	9.1	1%	4.0	0.7	-1	-1	1.8	8	4
CCN1CCN(c2ccc(S(=O)(=O)N3CCOCC3)cc2NC(=O)c2ccc(Cl)s2)CC1	-3	4.4	-2%	11	-0.5	7	4	3.1	69*	-3
COc1ccccc1-c1ccc(SCc2ccc(C)cc2)nn1	3	?	-2%	-3.8	-6.1	-12	4	-0.7	1	·
COC1CCN(C(=O)CC2C(=O)NCCN2CC2CCCCC2)CC1 (centres undefined)	-2	7.4	-3%	-2.9	-0.1	22	19	2.8	0	0
Cc1ccc(OCCCC(=O)Nc2ccc(S(=O)(=O)Nc3ccccn3)cc2)cc1	18	2.1	11%	-2.0	0.4	11	12	6.4	-4	-3
CCN(c1ccc(C(=O)CN2C(=O)NC3(CCOc4ccccc43)C2=O)cc1)S(C)(=O)=O (centres undefined)	·	·	·	-1.8	0.9	2	9	-0.4	·	1
COc1ccc2nc(SCC(=O)Nc3c(C)cc(C)cc3C)[nH]c2c1	4	5.8	-1%	·	0.1	·	·	·	-23	12
O=CNc1ccc(S(=O)(=O)NCc2ccccc2)cc1	-26	-6.5	1%	·	-0.2	·	·	·	-13	-3
CCOc1ccc(S(=O)(=O)Nc2cccnc2)cc1	-5	0.3	29%	·	0.1	·	·	·	-18	-3
CCOc1ccc(NC(=O)CC(Cc2cc(C)cc(C)c2)C(=O)O)cc1 (centres undefined)	3	?	-6%	-1.1	0.0	0	6	-0.4	-7	0
CC(C)n1c(O)c(N=Nc2ccccn2)c2ccccc21	7	-4.9	-5%	19	0.6	·	·	·	16	·
CC(C)CN1C(=O)/C(=C(/C#N)C(=O)NC2CCCCC2)c2ccccc21	-10	-1.2	-9%	3.3	-0.3	2	-10	1.4	51	9
CC(C)C(C)(C#N)NC(=O)CSc1nc2scc(-c3ccc(F)cc3)c2c(=O)n1Cc1ccccc1 (centres undefined)	1	5.9	-9%	·	0.9	·	·	·	28	·
COc1ccc(N2CCN(C(=O)CCCCCn3c(=S)[nH]c4cc5c(cc4c3=O)OCO5)CC2)cc1	11	-1.5	·	·	1.6	·	·	·	-12	9
CCCCNC(=S)NNC(=O)c1csc(C(C)C)c1	-30	1.5	?	·	-0.7	·	·	·	-16	-1
Cc1cccc(NC(=O)CSc2nc3ccccc3c3nc(CCc4c(C)n[nH]c4C)nn23)c1	-22	2.7	-3%	·	-0.8	·	·	·	27	21
c1ccc(-c2ncc3ccccn23)cc1	-4	4.1	·	-1.4	-0.6	19	12	7.7	-12	0
O=C(O)c1cc(-c2ccncc2)nc2ccc(F)cc12	-4	-1.4	1%	·	·	·	·	·	-6	·
CCCCNC(=O)COC(=O)c1ccc(SC)cc1OC	1	-4.3	2%	2.5	1.0	-20	-17	-3.7	5	-3
CCCc1c(C(=O)Nc2ccc(N3CCOCC3)cc2)cnn1-c1ccccc1	-10	-1.9	28%	2.3	1.1	6	-7	4.1	37	5
O=C(O)CN1C(=O)C(=O)N(Cc2c(F)cccc2Cl)C1=O	6	8.4	1%	-2.1	0.0	5	3	-0.7	-5	1
CC1(NC(=O)Cc2ccc(S(=O)(=O)N3CCOCC3)s2)CCS(=O)(=O)C1 (centres undefined)	3	0.1	·	4.3	0.0	2	7	-2.5	-7	0

A draw from above in order of count of non-hydrogen atoms, falling.
SMILES	Calb FLC	RanGTP-Imp inh	Vif A3G	MLL AF4-AF9 inh	Bfl-1 A1 inh	Ecoli rRNA inh	Ecoli rRNA inh OD600	Ecoli rRNA inh RFP	T cruzi repl	Beta apoptosis
COC1CCN(C(=O)CC2C(=O)NCCN2CC2CCCCC2)CC1 (centres undefined)	-2	7.4	-3%	-2.9	-0.1	22	19	2.8	0	0
COc1ccccc1-c1ccc(SCc2ccc(C)cc2)nn1	3	?	-2%	-3.8	-6.1	-12	4	-0.7	1	·
CC(C)n1c(O)c(N=Nc2ccccn2)c2ccccc21	7	-4.9	-5%	19	0.6	·	·	·	16	·

(more compounds)
SMILES	Calb FLC	RanGTP-Imp inh	Vif A3G	MLL AF4-AF9 inh	Bfl-1 A1 inh	Ecoli rRNA inh	Ecoli rRNA inh OD600	Ecoli rRNA inh RFP	T cruzi repl	Beta apoptosis
O=C(CN1C(=O)S/C(=C/c2cccn2-c2ccc(O)cc2)C1=O)N1CCCC1	-17	-1.2	·	10	0.0	-3	-5	-0.1	0	1
CCC(CC)C(=O)Nc1cccc(C(=O)Nc2ccc(OC)cc2[N+](=O)[O-])c1	-7	-6.7	-3%	·	0.0	·	·	·	-6	1
Cc1ccsc1C(=O)OCC(=O)c1cc(C)n(CC2CCCO2)c1C (centres undefined)	8	0.6	5%	·	-8.3	·	·	·	-1	11
COc1cc(CNn2nnnc2N)cc(Br)c1OCc1c(Cl)cccc1Cl	3	2.8	?	·	-1.0	·	·	·	-1	-2
CC1=C(C(N)=O)C(c2ccc(Cl)cc2Cl)n2ncnc2N1 (centres undefined)	20	-2.8	17%	·	-0.8	·	·	·	-8	·
CC1CCCN(S(=O)(=O)CCNC(=O)c2ccccc2)C1 (centres undefined)	2	-0.4	3%	4.1	0.3	7	4	0.2	1	2
Cc1cc(C)n(-c2ncc3c(n2)N(C)CCOC3=O)n1	-12	0.7	-8%	-0.2	0.0	-6	3	-0.8	-25	-1
Clc1c2c(nc3ccccc13)CCC2	-2	1.8	2%	-0.9	-0.2	11	8	2.4	2	-5
CCc1nnc(NC(=O)c2ccc(S(=O)(=O)N3CCCCC3)cc2)s1	-13	2.3	·	-3.1	0.1	4	7	-0.3	-12	-2
CCn1c(SCC(=O)Nc2cc(C)on2)nnc1-c1ccc(OC)cc1	27	-6.8	·	-1.4	0.9	-2	1	-1.6	-6	-12
CC(C)(Cc1ccc(O)cc1)NC(=O)c1ccccc1	4	2.7	8%	-7.2	0.8	9	-2	6.0	-15	-3
CNC(=S)/N=C(/Nc1ccccc1)c1ccccc1	?	-0.8	-5%	-4.9	-1.5	3	1	0.3	-19	-5
CCOCCCNC(=O)c1cc2cc3cc(OC)ccc3nc2o1	-16	-1.3	-5%	1.2	-1.4	-8	-13	3.2	-8	-3
Cc1nnc(C)c2c(C)n(N)c(C)c12	-6	-3.4	18%	-3.0	-0.4	21	16	4.0	1	-6
Cc1csc(NC(=O)C(NC(=O)c2ccccc2F)C(C)C)n1 (centres undefined)	-3	-4.5	2%	1.8	0.7	-5	-2	1.0	4	-13
CCNC(=O)n1nccc1C(C)Oc1cccc(C(F)(F)F)c1 (centres undefined)	23	1.9	-6%	·	-0.5	·	·	·	13	3
Cc1nc2c(C(=O)N3CCCC3)cnn2c(C)c1Cc1c(F)cccc1Cl	32	3.4	17%	·	0.3	·	·	·	18	-2
CCCN(CCC)C(=S)NC(=O)c1ccc(-c2ccccc2)cc1	-6	1.8	4%	·	0.3	·	·	·	50	7
O=C(OCc1cc2ccccc2[nH]c1=O)c1cccnc1	2	?	0%	·	0.1	·	·	·	-8	0
Cc1cc(/C=C(\C#N)C(=O)O)c(C)n1-c1ccc(Br)cc1	-5	-1.1	23%	5.3	0.0	-31	-32	-13	17	28
COc1ccc(NC2CCCN(C(=O)CCC3=NNC(=O)CC3)C2)cc1 (centres undefined)	-9	2.1	0%	-0.6	-0.5	-2	2	-1.8	-7	-1
